H5N1 antiviral = antiviral screen in MDCK cells, H5N1 avian flu; inhibition, % at 50 µM; cytopathic effect, luminescence, 72 h; stronger effect = higher value; no value below 0 was filed and about half of the inactive calls have no number; reference of the scale not given here; AID 740; 96,000 tested, 0.07% active; in the data active = inhibition above about 25%
* hit, by the source's call; i = inactive. A portion of the library; count on the stated rates, not on these rows.

SMILES	H5N1 antiviral
O=C(CN1CCN(c2nc(-c3ccc(F)cc3)cs2)CC1)Nc1ccc2c(c1)OCO2	0.2
O=C(CCNS(=O)(=O)c1ccc(Cl)cc1)NCc1ccccn1	0.7
Cc1ccc(NC(=O)CSc2nnc(-c3ccccn3)n2C)cc1	i
O=C(NCC(c1cccnc1)N1CCN(c2ccc(F)cc2)CC1)c1ccccc1 (configuration not stated)	0.3
CCOc1ccc(-n2c(SCc3nc(-c4cccs4)no3)nnc2-c2ccncc2)cc1	0.5
Cc1onc(-c2ccccc2Cl)c1C(=O)Nc1nnc(C(C)C)s1	i
Cc1cnc(C(=O)OCC(=O)Nc2oc(-c3ccccc3)c(-c3ccccc3)c2C#N)cn1	i
COc1ccc(NC(=O)Nc2ccc3c(c2)N(C)C(=O)CS3)cc1OC	i
O=[N+]([O-])c1ccccc1S(=O)(=O)NCCC1=CCCCC1	1.9
CSc1ccccc1NC(=O)c1ccc(Cl)s1	i
O=C(Oc1cccc(NC(=O)c2ccccc2Cl)c1)c1ccc([N+](=O)[O-])cc1	i
N=c1c(C(=O)NC2CCCC2)cc2c(=O)n3ccccc3nc2n1CCN1CCOCC1	1.9
O=c1c2cnn(-c3ccccc3)c2nc(-c2cccs2)n1-c1ccc(Br)cc1	2.5
Cc1ccc(OCCCN2C(=O)C(=O)c3cccc(C)c32)cc1	2.2
Cc1csc2nc(CNS(=O)(=O)c3ccc4c(c3)OCCO4)cn12	2.7
O=S(=O)(N1CCCCCC1)N1CCN(S(=O)(=O)N2CCOCC2)CC1	i
CC(C)Sc1nc2c(c(=O)[nH]c(=O)n2C)n1Cc1ccc(Cl)cc1	0.8
COc1ccc(C(=O)CSc2nn3c(=O)c(C(C)(C)C)nnc3s2)cc1	i
Cc1ccc2[nH]c(=O)c(CN(CCCN(C)C)C(=O)Nc3cccc(Cl)c3)cc2c1	i
O=C(Nc1ccc(F)cc1)N1CCN(c2ccc3nnc(-c4ccc(F)cc4)n3n2)CC1	0.9
O=C(Nc1ccc(S(=O)(=O)N2CCOCC2)cc1)c1ccc(CN2CCc3ccccc3C2)cc1	4.3
COC(=O)c1cc(COC(=O)c2ccc3ccccc3n2)oc1C	i
Cc1ccccc1N(Cc1ccccc1F)S(C)(=O)=O	0.7
Cn1nc(C(F)(F)F)c2cc(C(=O)Nc3ccc(F)cc3F)sc21	1.1
Cc1csc2nc(CCNS(=O)(=O)c3cccs3)cn12	1.6

(further entries)
SMILES	H5N1 antiviral
COc1ccc(S(=O)(=O)N2CCC(C(=O)NC3CC3)CC2)cc1Cl	i
Cc1cc(NC(=O)c2cnn3c(C(F)(F)F)cc(-c4ccc(Br)cc4)nc23)no1	0.0
O=C(CN1CCN(Cc2ccccc2)CC1)Nc1cccc(C(F)(F)F)c1	0.8
CCCCOc1ccc(C(=O)N/C(=C\c2cccc([N+](=O)[O-])c2)C(=O)OCCC)cc1	i
O=C(CC1CCCCC1)NC1CCCC1	i
O=c1nc2s/c(=C\c3ccco3)c(=O)n2nc1Cc1ccc(F)cc1	i
CCCCOc1ccccc1C(=O)NCCCC(=O)O	i
O=C(CN1CCN(Cc2ccccc2Cl)C1=O)NCC1CCCO1 (configuration not stated)	0.9
COc1cccc(OCCCOc2ccc([N+](=O)[O-])cc2Cl)c1	i
Cc1cc(NC(=O)CCc2ccc(S(=O)(=O)N3CCOCC3)cc2)n(-c2ccccc2)n1	0.2
CCOc1ccc(NC(=O)N(C2CCCCC2)C(C)c2cccnc2)cc1 (configuration not stated)	3.8
CC(=O)NC(CCS(C)(=O)=O)C(=O)Nc1ccccc1Cl (configuration not stated)	i
Nn1c(SCC(=O)Nc2ccccc2F)nc2ccccc2c1=O	i
Cc1cc([N+](=O)[O-])nn1Cc1c(F)c(F)c(F)c(F)c1F	i
O=C(Nc1ncc(Cl)cn1)c1cccs1	1.5
CCCN1C(=O)CC(c2ccco2)Sc2ccccc21 (configuration not stated)	i
CCOC(=O)C1=C(C)N(CCO)C(=O)NC1c1cccc(O)c1 (configuration not stated)	0.4
O=C(c1cc2cc(Br)cc(Br)c2oc1=O)N1CCCc2ccccc21	i
COc1ccc(C(CNC(=O)c2cc(=O)[nH]c3ccccc23)N2CCCC2)cc1 (configuration not stated)	i
CCCCNC(=O)Cc1coc2ccc3ccccc3c12	i
O=c1cc(-c2ccccc2)c2ccc(O)c(CN3CCCCC3)c2o1	0.9
O=C(CSc1nnc(-c2cccs2)o1)N1CCCc2ccccc21	1.1
O=C(CSc1ccc(-c2ccccc2)nn1)N1CCOCC1	i
O=C(N1CCOCC1)N(CCN1CCOCC1)Cc1cccc(Cl)c1	0.3
CCCN1C(=O)/C(=C/c2c(NCCCOCC)nc3c(C)cccn3c2=O)SC1=S	0.8

4 records picked at random from the list so far, as already listed:
SMILES	H5N1 antiviral
O=C(CN1CCN(Cc2ccccc2Cl)C1=O)NCC1CCCO1 (configuration not stated)	0.9
O=C(CSc1nnc(-c2cccs2)o1)N1CCCc2ccccc21	1.1
Cc1cc(NC(=O)CCc2ccc(S(=O)(=O)N3CCOCC3)cc2)n(-c2ccccc2)n1	0.2
O=C(c1cc2cc(Br)cc(Br)c2oc1=O)N1CCCc2ccccc21	i

Next section
SMILES	H5N1 antiviral
Cc1cccc(Nc2ncnc3nc[nH]c23)c1C	i
Cc1ccc(C(=O)N/C(=C/c2ccc(-c3cccc([N+](=O)[O-])c3)o2)C(=O)NC(C)C)cc1	0.7
CCOC(=O)C1CCN(C(=O)CS(=O)Cc2nc(-c3ccc(C)cc3)oc2C)CC1 (configuration not stated)	0.3
CCNC(=S)NNC(=O)c1ccoc1C	i
Cc1c(Br)c([N+](=O)[O-])nn1CC(=O)NCc1cccnc1	1.0
O=C(NCCO)c1cccc(S(=O)(=O)N2CCCCC2)c1	i
CC1(C)Oc2ccc(C(=O)N3CCOCC3)cc2N(CC(=O)N2CCOCC2)C1=O	i
CC1(C(=O)NC2CCCCC2)CCC(=O)N1Cc1cccs1 (configuration not stated)	0.0
COC(=O)c1ccccc1OCCCOc1ccc(C=O)cc1OC	0.7
COc1ccc(OC)c(C2C(C#N)=C(N)Oc3cc(C)n(Cc4ccccn4)c(=O)c32)c1 (configuration not stated)	0.4
Clc1ccc2[nH]c3c(N4CCC5(CC4)OCCO5)ncnc3c2c1	0.9
CCCn1nc(C(=O)NCc2ccccn2)c2ccccc2c1=O	1.0
O=C(CSc1nc2ccccc2o1)Nc1ccc(N2CCOCC2)cc1	1.2
CCN(CC)C(=O)CSc1nc2ccccc2c(=O)n1OC	0.6
COc1ccc2nc(SCC(=O)N3CC(=O)Nc4ccccc43)c(C#N)cc2c1	i
Cc1cc(-c2ccccc2)nc2[n+]1CCN2C	0.2
CCn1c(-c2ccccc2Cl)nn(CC(=O)Nc2cc(Cl)ccc2Cl)c1=S	0.6
CCC(C(=O)Nc1cccc(C(F)(F)F)c1)c1ccccc1 (configuration not stated)	1.4
CCOC(=O)c1cc(NC(=O)c2ccc(C)cc2)c(=O)oc1-c1ccccc1	i
CC1CN(C(=O)CSc2nnc3c(Cl)cc(Cl)cn23)CC(C)O1 (configuration not stated)	i
Cc1cc(C(=O)CSc2nn3c(=O)c(C(C)(C)C)nnc3s2)c(C)n1-c1ccc(F)cc1	i
COc1ccc(C2C(C#N)=C(N)N(c3ccccc3)C3=C2C(=O)CCC3)cc1Cn1cc([N+](=O)[O-])cn1 (configuration not stated)	2.4
C=CCN1C(=O)CSc2ccc(C(=O)NCc3ccco3)cc21	2.2
CCOCCCNC(=O)C(NC(=O)c1ccc(=O)[nH]c1)c1ccc(C)cc1 (configuration not stated)	1.1
N#CC(C(=O)NC1CC1)c1nc2ccccc2nc1N1CCCC1 (configuration not stated)	0.5

Rewritten bar-delimited: 2 of the compounds above.
canonical_smiles | H5N1 antiviral
Cc1cc(-c2ccccc2)nc2[n+]1CCN2C | 0.2
CCn1c(-c2ccccc2Cl)nn(CC(=O)Nc2cc(Cl)ccc2Cl)c1=S | 0.6

The main list resumes; the 5 compounds before the break are reprinted first.
SMILES	H5N1 antiviral
Cc1cc(C(=O)CSc2nn3c(=O)c(C(C)(C)C)nnc3s2)c(C)n1-c1ccc(F)cc1	i
COc1ccc(C2C(C#N)=C(N)N(c3ccccc3)C3=C2C(=O)CCC3)cc1Cn1cc([N+](=O)[O-])cn1 (configuration not stated)	2.4
C=CCN1C(=O)CSc2ccc(C(=O)NCc3ccco3)cc21	2.2
CCOCCCNC(=O)C(NC(=O)c1ccc(=O)[nH]c1)c1ccc(C)cc1 (configuration not stated)	1.1
N#CC(C(=O)NC1CC1)c1nc2ccccc2nc1N1CCCC1 (configuration not stated)	0.5
CCN1CCN(CC(O)COC(C)C)CC1 (configuration not stated)	1.2
CC1=C(CC(=O)c2ccccc2)C(=O)c2ccccc2C1=O	i
COc1ccc(CNc2nc3c(c(=O)n(Cc4ccc(Cl)cc4)c(=O)n3C)n2C)cc1	2.4
CCc1ccc(/C=N/NC(=O)c2cc(C3CC3)nc3ccc(Br)cc23)s1	i
NC(=O)c1sc2nc(N3CCOCC3)c3c(c2c1N)CCCC3	0.5
O=c1[nH]c2cccnc2n1Cc1ccco1	1.9
COc1ccc(CC(=O)Nc2nc3ccccc3s2)cc1S(=O)(=O)N1CCOCC1	8.5
CCOC(=O)c1[nH]c(C)c(C(=O)Nc2ccc(F)cc2)c1C	i
COc1ccccc1N=c1sc2ccccc2n1C	i
CCC(=O)Nc1ccccc1C(=O)OCC(=O)c1cccc2ccccc12	i
C=CCn1c(Sc2nc(C)cs2)nc2c1c(=O)[nH]c(=O)n2C	2.1
COc1ccc(N(CC(=O)Nc2ccc(C)cn2)S(=O)(=O)c2c(C)nn(C)c2C)cc1	0.0
COc1ccc(C(=O)/C=C(\C)NCc2ccc3c(c2)OCO3)cc1	1.3
COc1ccccc1N1CCN(C(=O)CCCCn2c(=O)[nH]c3ccsc3c2=O)CC1	1.7
O=C(CCCCCn1c(=O)[nH]c2ccsc2c1=O)NCc1ccc(F)cc1	1.0
COc1nc(C)ccc1-c1noc(-c2ccccn2)n1	0.1
CC1Cc2ccccc2N1c1ncnc2nc[nH]c12 (configuration not stated)	7.9
O=C(Nc1cccc(O)c1)c1ccc(Br)cc1	0.7
COc1cc(OC)cc(-c2nnc(SCC(=O)N3CCCCC3)o2)c1	1.7
N#Cc1c(C(F)(F)F)cc(-c2cccs2)nc1SCc1ccc(Cl)nc1	i
CC(C)NS(=O)(=O)c1ccc(CCC(=O)NCc2cccnc2)cc1	i
CCn1c(SCC(=O)N2CCCc3ccccc32)nc2cccnc21	3.4
Cc1sc2ncnc(NCC3(N4CCOCC4)CCCCC3)c2c1C	i
CCCc1nnc(NC(=O)CCC(=O)Nc2ccc(F)cc2)s1	i
CC(=O)c1ccc(OC(=O)N(c2ccccc2)c2ccccc2)cc1	0.3

Later entries
SMILES	H5N1 antiviral
CCOC(=O)N1CCC(NC(=O)c2ccc3c(c2)N(Cc2ccc(F)cc2)CCS3)CC1	0.4
CC1CCCC(NC(=O)CN2CCN(Cc3ccc(Cl)cc3)C2=O)C1C (configuration not stated)	i
O=C1c2[nH]nc(-c3ccccc3O)c2C(c2ccc(F)cc2)N1Cc1ccco1 (configuration not stated)	0.9
COCCSc1nnc(-c2cnccn2)o1	5.3
Cc1cccc(N(CC(=O)Nc2ccc(CC#N)cc2)S(C)(=O)=O)c1	i
CCC(C)NS(=O)(=O)c1ccc(OCC(=O)Nc2ccc3c(c2)OCCO3)cc1 (configuration not stated)	i
Cn1c(CN2CCCCC2)nc2cc(NC(=O)c3cccc(Br)c3)ccc21	i
CCc1ccc2c(CC(=O)Nc3nnc(C4CC4)s3)coc2c1	0.0
CC1=CC(C)(C)Nc2ccc(C)cc21	i
c1ccc(-c2nnc(CSc3nncs3)o2)cc1	2.9
CCC(C)(C)C1CCc2c(sc(NC(=O)c3ccoc3C)c2C(N)=O)C1 (configuration not stated)	i
Cc1ccc(CC(=O)OCCNC(=O)c2cccnc2)cc1	0.2
Cc1csc(=O)n1CC(=O)OCc1cccc2ccccc12	0.3
CCCC/S(CC1CC1(Cl)Cl)=N\S(=O)(=O)c1ccc(C)cc1 (configuration not stated)	i
COc1ccccc1NC(=O)C1=C(C)N(c2ccccc2)C(=S)NC1c1cccc(C(F)(F)F)c1 (configuration not stated)	0.2
CCOC(=O)C(=O)Nc1ccccc1C(N)=O	i
COc1cc(NC(=O)N[C@H](C(=O)O)C(C)C)cc(OC)c1	0.2
CCOC(=O)CNS(=O)(=O)c1ccc(C(=O)O)cc1	i
COc1ccc(-c2noc(-c3cc(Cl)ccc3Cl)n2)cc1OC	i
COc1ccccc1Cn1cnc2cccnc21	0.5
COC(=O)c1cccc(C(=O)Oc2cccc(Br)c2)n1	i
CCCOc1ccc(N2CC(C(=O)Nc3ncccc3C)CC2=O)cc1 (configuration not stated)	i
COc1ccccc1CNC(=O)CC(C)C	i
CSc1ncccc1C(=O)OCC(=O)N1CCOCC1	0.2
CCSc1nc(N2CCCCC2)c2c(c1C#N)CCCC2	3.6

More results follow:
SMILES	H5N1 antiviral
Cc1ccc(NC(=O)C2CCCN(S(=O)(=O)c3c(C)noc3C)C2)cc1F (configuration not stated)	0.5
CCN1C(=O)c2cccc3c(NC(=O)c4ccc5c(c4)OCCO5)ccc1c23	i
COc1ccc(-c2cnc(N)n2CC2CCCO2)cc1 (configuration not stated)	i
O=C(O)C1CCCN1C(=O)c1cccs1 (configuration not stated)	i
COc1ccc2cc3cc(C(=O)NCC4COc5ccccc5O4)oc3nc2c1 (configuration not stated)	0.3
CCCC(=O)Nc1ccc(C(=O)Nc2nnc(COC)s2)cc1	0.8
COc1ccc2[nH]c(C(=O)O)c(NS(=O)(=O)c3ccc(OC)c(OC)c3)c2c1	0.7
NNC(=O)C1=NOC(CNc2ncc(C(F)(F)F)cc2Cl)C1 (configuration not stated)	0.7
O=C(N/N=C/c1ccccc1Cl)c1cccc(F)c1	i
COc1ccc(-c2cc(C#N)nc(N3CCNCC3)n2)cc1	i
Cc1cc2ncn(C(=O)c3c(-c4c(Cl)cccc4Cl)noc3C)c2cc1C	0.3
O=C(CSc1nc(C2CC2)nc2ccccc12)N1c2ccccc2Sc2ccccc21	5.0

Sorted by length of the SMILES (high to low): three of the compounds above
SMILES	H5N1 antiviral
CCN1C(=O)c2cccc3c(NC(=O)c4ccc5c(c4)OCCO5)ccc1c23	i
O=C(N/N=C/c1ccccc1Cl)c1cccc(F)c1	i
O=C(O)C1CCCN1C(=O)c1cccs1 (configuration not stated)	i
